# Bioassay records: PubChem, National Center for Advancing Translational Sciences (NCATS)
# Vaccinia Venus: qHTS for Stage-Specific Inhibitors of Vaccinia Orthopoxvirus: Venus Reporter Primary qHTS; hit rate 0.46% among 330,000; Potency, µM (doses to about 36.5 µM), inactives show top-dose activity change, negative = inhibition, most hits filed as inhibitors; Vaccinia virus Venus reporter expression, fluorescence; active means well fitted inhibition curve with a large enough effect; inconclusive means small, poorly fitted or top-dose-only effect; inactive means no such curve, though single readings can be large or run the other way; tested in A549 cells; further: nearly all actives have a fitted effect of over 30% in size; inactives centre near -10
# VACV mCherry inh: qHTS for Stage-Specific Inhibitors of Vaccinia Orthopoxvirus: mCherry Reporter Primary qHTS; Potency, µM (titrated, usually from 36.5 µM), without a hit: at the highest dose activity change, negative = inhibition, usual class: inhibitors; Vaccinia virus mCherry reporter infection, fluorescence; about a quarter of the inactives have no number; hit rate 0.63% among 310,000; active = well fitted inhibition curve with a large enough effect; inconclusive = small, poorly fitted or top-dose-only effect; inactive = no such curve, though single readings can be large or run the other way; tested in A549 cells; further: nearly all actives have a fitted effect of over 35% in size; inactives centre near -10
# Active calls of the source: *; i = inactive; u = inconclusive; x = not tested or not shown; [ ] = another dose, or the depositor's remark. On the % scale 0 is the no-effect control and ±100 the full control effect; potency means the concentration at half of the fitted maximal effect.
SMILES,Vaccinia Venus,VACV mCherry inh
COc1ccc(N2C(=O)CC(NCc3cccs3)C2=O)cc1 (centres undefined),-12%,-17%
O=C(NC(=S)Nc1ccccc1N1CCCCC1)c1ccc(F)cc1,-2%,-12%
COc1ccc2cc(C3(C)NC(=O)N(CC(=O)Nc4c(C)n(C)n(-c5ccccc5)c4=O)C3=O)ccc2c1 (centres undefined),u,-16%
Cc1cc(NC(=O)c2ccc3c(c2)OCO3)ccc1NC(=O)c1ccccc1,-18%,-28%
Cc1ccc(NC(=O)C(=O)NCc2ccc(Cl)cc2)cc1,-4%,-9%
CN(CCCNC(=O)c1cccc(N2CCCC2=O)c1)c1ccccc1,-18%,-11%[1.46 µM]
CCc1cccc2c(C(=O)CSc3nncn3-c3ccccc3OC)c[nH]c12,-2%,-29%
Cc1cc(NC(=O)COC(=O)CSc2nc3cc(Cl)ccc3n2Cc2ccccc2)no1,-4%,-9%
COc1ccc(CN(CC(=O)NCc2ccco2)C(=O)CNS(=O)(=O)c2ccc(C)cc2)cc1,-2%,-9%
CCc1cc2c(SCC(=O)NC3CC3)ncnc2s1,-7%,i
COc1ccc2oc(-c3ccc(NC(=O)c4ccc(N5CCOCC5)c([N+](=O)[O-])c4)cc3)nc2c1,-11%,i
O=c1c(S(=O)(=O)c2ccccc2)cn(Cc2ccccc2)c2cc(N3CCOCC3)c(F)cc12,-16%,-6%
Cc1ccc(CC(=S)N2CCOCC2)cc1,1%,0%
COc1cc(C2NC(=O)NC(C)=C2C(=O)OCC2CCCO2)ccc1O (centres undefined),-3%,-7%
CCOc1cc(OCC)cc(C(=O)NCCCN2CCOCC2)c1,-11%,-11%
Cc1ccc(NC(=O)Cc2ccsc2)cc1S(=O)(=O)N1CCOCC1,-23%,u
CCOc1ccccc1C1C2=C(COC2=O)Nc2cc3c(cc21)OCO3 (centres undefined),u,u
COc1ccc(-c2nnc(SCC(=O)c3ccc(C)o3)o2)cc1,u,28µM*
COc1ccc(N2CC(C(=O)Nc3nnc(SCC(=O)c4ccccc4)s3)CC2=O)cc1 (centres undefined),-4%,-4%
O=C(Nc1cccc(F)c1)C1CCN(C(=O)Cc2ccccc2)CC1,-7%,x

# Reprinted from the part before: 7 entries, followed by the next part.
SMILES,Vaccinia Venus,VACV mCherry inh
COc1cc(C2NC(=O)NC(C)=C2C(=O)OCC2CCCO2)ccc1O (centres undefined),-3%,-7%
CCOc1cc(OCC)cc(C(=O)NCCCN2CCOCC2)c1,-11%,-11%
Cc1ccc(NC(=O)Cc2ccsc2)cc1S(=O)(=O)N1CCOCC1,-23%,u
CCOc1ccccc1C1C2=C(COC2=O)Nc2cc3c(cc21)OCO3 (centres undefined),u,u
COc1ccc(-c2nnc(SCC(=O)c3ccc(C)o3)o2)cc1,u,28µM*
COc1ccc(N2CC(C(=O)Nc3nnc(SCC(=O)c4ccccc4)s3)CC2=O)cc1 (centres undefined),-4%,-4%
O=C(Nc1cccc(F)c1)C1CCN(C(=O)Cc2ccccc2)CC1,-7%,x
O=S(=O)(N1CCCCC1)N1CCNCC1,-11%,-9%
CC(=O)c1cccc(-c2ccnc3c2CC(C(=O)N2CCN(C)CC2)O3)c1 (centres undefined),-3%,4%
Cc1ccc(CNC(=O)C(=O)NCC2CCCN2S(=O)(=O)c2cccs2)cc1 (centres undefined),-14%,-21%
O=C(CC1C(=O)N(c2ccccc2)C(=O)N1Cc1ccc2c(c1)OCO2)Nc1ccccc1 (centres undefined),-7%,-1%
COCCNC(=O)NC(=O)COC(=O)C12CC3CC(CC(NC(C)=O)(C3)C1)C2,-20%,x
Cc1ccccc1-c1cc2nc(-c3ccc([N+](=O)[O-])cc3)cc(=O)n2[nH]1,-3%,i
CC(C)Oc1cc(O)c2c(=O)c(-c3ccc(O)cc3)coc2c1,-24%,u
CN1[C@@H]2CC[C@H]1CC(OC(=O)C1C=Nc3ccccc31)C2 (some centres undefined),-10%,-14%
Cc1ccc(-n2c(SCc3cn4ccsc4n3)nc3ccccc3c2=O)cc1,u,-26%[1.46 µM]
Cc1ccc(-c2nnn(CC(=O)N(c3ccccc3)C(C(=O)NCC3CCCO3)c3ccc(F)cc3)n2)o1 (centres undefined),-18%,i
COc1ccc(-n2c(-c3cccc(F)c3)nc3c(cnn3-c3ccc(C)cc3)c2=O)cc1,-12%,-14%
CCOC(=O)Cn1c(C)[n+](C)c2cc(Cl)c(Cl)cc21,-7%,i
COc1ccccc1N1CCN(C(=O)/C=C/c2cccs2)CC1,-6%,-9%
Cc1c(NC(=O)C2CC=CCC2C(=O)O)c(=O)n(-c2ccccc2)n1C (centres undefined),-5%,-15%
C=C1C(N)CC2CC1C2(C)C (centres undefined),43%[activator],34%[activator]
C#CCCC/C(=C\C(=O)N(C)[C@H](C(=O)N(C)[C@H](C(=O)N(C)[C@H](C(=O)N(C)[C@H](C(N)=O)C(C)C)C(C)C)C(C)C)C(C)C)OC,-16%,u
O=C1O/C(=C\C(=O)N2CCOCC2)c2ccccc21,-16%,x
COc1ccc(CC(N)c2csc(NC(=O)Nc3ccccc3C(C)(C)C)n2)cc1 (centres undefined),-12%,0%
COc1cc2nc(Cl)nc(NC3CCN(Cc4ccccc4)CC3)c2cc1OC,-30%,-18%
COc1ncc(-c2ccc(N3C(c4ccsc4)=Cc4ccc(F)cc4C3CC(=O)c3ccco3)cc2)cn1 (centres undefined),-5%,-1%

# The final three records of the section above lead into the next.
SMILES,Vaccinia Venus,VACV mCherry inh
COc1ccc(CC(N)c2csc(NC(=O)Nc3ccccc3C(C)(C)C)n2)cc1 (centres undefined),-12%,0%
COc1cc2nc(Cl)nc(NC3CCN(Cc4ccccc4)CC3)c2cc1OC,-30%,-18%
COc1ncc(-c2ccc(N3C(c4ccsc4)=Cc4ccc(F)cc4C3CC(=O)c3ccco3)cc2)cn1 (centres undefined),-5%,-1%
CCN(C(=O)COC(=O)c1c(C)noc1C)C1CCS(=O)(=O)C1 (centres undefined),-9%,i
CN(C)C(=O)CSc1n[nH]c(-c2ccco2)n1,-9%,i
C=CCNC(=O)COC(=O)c1ccc(Sc2nncn2C)c([N+](=O)[O-])c1,-13%,-21%
COc1cc(/C=N/Nc2nc(C)cc(C)n2)ccc1O,-11%,-6%
CCOC(=O)Cc1ccc(NC(=O)NCc2c(-n3cccc3)sc3c2CCCC3)cc1,-20%,-14%
CCCCC1(Cc2ccc([N+](=O)[O-])cc2)C(=O)N(c2ccccc2)N(c2ccccc2)C1=O,u,u
O=C(Nc1cccnc1)c1ccc(C(=O)Nc2cccnc2)cc1,-13%,-5%
CCC(C)NC(=O)c1cc2c(=O)n(CC)c3ccccc3c2s1 (centres undefined),-29%,-15%
CCCC(c1nnnn1CCOC)N1CCN(C(=O)c2ccco2)CC1 (centres undefined),-18%,x
CCc1ccc(C(=O)Cn2ccsc2=N)cc1,-26%,-17%
O=C(O)C(Cc1ccccc1)N1C(=O)/C(=C/c2cccs2)SC1=S (centres undefined),6%,-11%
COc1ccc(CC(=O)O/N=C(\N)c2ccncc2)cc1OC,-16%,-1%
CCO[C@@H]1OC(C(=O)Nc2ccccc2)=C[C@H](C2CC2)[C@H]1CCCO,1%,32%[activator]
Cc1cc(C)cc(-n2c(C)nc3cc(C(=O)NCc4ccccc4Cl)ccc32)c1,-9%,10%
CC1=Nc2ccccc2N=C(NC(=O)CN2CCN(c3ccc(F)cc3)CC2)C1c1ccccc1 (centres undefined),-5%,-3%
N#Cc1ncn(C2OC(CO)C(O)C2O)c1N (centres undefined),-15%,-7%
O=C(C1=C[C@@H](c2ccc3c(c2)OCO3)C[C@@H](OCCCCO)O1)N1CCOCC1,-6%,i
Cc1nc(C(=O)NC2CCOCC2)sc1C1(C)CC(c2ccccc2)=NO1 (centres undefined),-6%,19%
Nc1nnc(SCc2ccc(F)cc2Cl)s1,-16%,-26%
NC(=O)c1ccsc1NC(=O)CS(=O)(=O)c1ccccc1,-1%,i
CC(OC(=O)Cc1n[nH]c(=O)c2ccccc12)C(=O)Nc1ccc(F)cc1 (centres undefined),-9%,i
COc1ccc(N/C=C\C(=O)c2ccc(Br)cc2)cc1OC,0%,-2%
OC(COc1ccc(OCC(O)CN2CCN(Cc3ccccc3)CC2)cc1)CN1CCN(Cc2ccccc2)CC1 (centres undefined),-16%,-6%
Cc1onc(-c2ccccc2)c1C(=O)OCC(=O)Nc1cc(S(=O)(=O)N2CCOCC2)ccc1Cl,-22%,-5%
CCC(=O)NC(=Nc1nc2ccccc2s1)NC(=O)CC,-15%,x
CN(C)C(=S)NC(C)(C)C,-6%,i
Cc1ccc2nc(NC(=O)C3CCN(S(=O)(=O)c4cc([N+](=O)[O-])ccc4Cl)CC3)sc2c1,u,u
C#CCn1cc(Cl)cc(C(=O)Nc2ccccc2)c1=O,-5%,i
Cn1c(C(=O)OCC(=O)NCc2cccs2)cc2sccc21,-24%,-15%
Cc1c(C(=O)N(Cc2cccc(Br)c2)C2CCS(=O)(=O)C2)oc2ccc(F)cc12 (centres undefined),-7%,i
Cc1cccc(NS(=O)(=O)c2ccc3[nH]c(=O)ccc3c2)c1C,-4%,-14%
COCCCNC(=O)C[C@@H]1C[C@@]2(C(=O)OC)CCCCC=C2N(Cc2ccco2)C1=O,-12%,17%
COc1ccc(NC(=O)NC(=O)c2cc(OCC(F)(F)F)ccc2OCC(F)(F)F)cc1,-28%,-28%
Cc1ccc(N(CC(=O)NCc2ccc3c(c2)OCO3)C(=O)CCC(=O)Nc2ccccn2)cc1,-23%,-3%
Cc1cc2c(cc(C(=O)O)n2C)s1,-6%,x
COc1cccc2c1cc1c(=O)n(CC(=O)N3CCN(c4ccccc4)CC3)nc(C)n12,-7%,-10%
CC(C)(C)c1cccc(Cn2nnc3ccccc32)c1O,u,u
O=C1CCC/C(=N\NC(=O)COc2ccc(Cl)cc2)C1,-5%,i
Cc1ccc(OC(=O)c2ccc(Br)o2)cc1,-2%,-15%
COc1cc(C(O)c2nc(-c3cc(F)cc(F)c3)cs2)ccc1F (centres undefined),0%,2%
Cc1ccc(CN2C(=O)C(F)(F)Oc3ccc(C)cc32)cc1,-7%,i
Cc1ccc(OCCC(=O)OCC(=O)N2CCN(S(=O)(=O)c3ccc(Cl)cc3)CC2)cc1,1%,i
CCOc1cc(CNc2ccc3c(c2)OCCO3)cc(Br)c1OCC(N)=O,u,-20%
COc1cccc2cc(C(=O)NCc3ccccc3Br)c(=O)oc12,-10%,i
CCCS(=O)(=O)NC(=O)C1(C)CCCN(C(=O)COc2ccccc2)C1 (centres undefined),1%,27%
Cc1ccc(NC(=O)CCCSc2nc3ccccc3[nH]2)cc1,-13%,-4%
CC1C2CCC(C2)C1OC(=O)c1ccccc1C(=O)O (centres undefined),-2%,-5%
COc1ccc(-c2c(C#N)c(N)nc3c2CCC3)cc1,-14%,-4%
OCC[C@@H]1C[C@H](O)[C@@H](O)[C@@]2(OCc3ccc(CO)cc32)O1,3%,6%
O=C(COC(=O)c1ccc(O)cc1)NCCCc1ccccc1,-17%,-14%
Cc1cc(C(=O)CCC(=O)N2CCN(S(=O)(=O)c3cccs3)CC2)c(C)s1,-10%,-21%
CCC(CC)C(=O)Nc1c2c(nn1-c1ccc(OC)cc1)CS(=O)C2 (centres undefined),-1%,-13%
Cc1ccc(OCC(=O)Nc2nonc2-c2ccc(Br)cc2)cc1,3%,-5%
Cc1oc(-c2cccc(C(F)(F)F)c2)nc1CN1CCOCC1,-11%,-8%
COc1ccc(C)cc1NC(=O)c1cc(C2CC2)nc2c1c(C)nn2C1CCS(=O)(=O)C1 (centres undefined),-10%,-24%
CN(CC(=O)Nc1ncn[nH]1)S(=O)(=O)c1ccc(Br)cc1,-6%,-11%
Cc1ccc(SC(C)C(=O)N2CCCC2)cc1 (centres undefined),4%,-15%
O=C1c2c(O)cc(O)cc2O[C@H](c2ccc(O)c(O)c2)[C@H]1O,-16%,i
CCCN(CCC)C(=O)Cc1c(-c2ccc(Cl)cc2)nc2c(Cl)cc(Cl)cn12,-17%,-1%
COc1cc2c(C(=O)N3CCN(c4cccc(C(F)(F)F)c4)CC3)cn(CC(C)C)c(=O)c2cc1OC,-24%,-29%

# (more compounds)
SMILES,Vaccinia Venus,VACV mCherry inh
O=c1oc(-c2ccccc2Br)nc2ccccc12,-17%,-26%
Cc1cc([N+](=O)[O-])ccc1NC1CCCC1,-12%,-12%
CCc1noc(C)c1C(=O)OCC(=O)N(CCOC)c1c(N)n(Cc2ccccc2)c(=O)[nH]c1=O,-11%,i
CCCS(=O)(=O)c1nc(S(=O)(=O)c2ccc(C)cc2)c(NCC(C)C)s1,0%,-14%
Cc1c(CNCc2ccc(OC(C)C)cc2)c(C(=O)O)c(C)n1Cc1ccc(Cl)cc1,-8%,-16%
CCCOP(=O)(c1ccc(N(C)C)cc1)C(O)c1cc(OC)c(OC)c(OC)c1 (centres undefined),-21%,i
O=[N+]([O-])c1ccc(Oc2cccnc2)c([N+](=O)[O-])c1,u,-3%
Cc1cc(NC(=O)COc2coc(CN3CCN(c4ccc(F)cc4)CC3)cc2=O)no1,-10%,-14%
CCCNC(=O)c1ccc(Cn2cc(C(F)(F)F)ccc2=O)cc1,-6%,-12%
COc1ccc(/C=C/C(=O)Nc2cc(S(=O)(=O)N3CCOCC3)ccc2C)cc1OC,-10%,i
COc1ccc(/C=N/OC(=O)Nc2ccc(Cl)cc2)c(OC)c1,-9%,i

# Part of the list above, set out differently:
SMILES | Vaccinia Venus | VACV mCherry inh
O=C1c2c(O)cc(O)cc2O[C@H](c2ccc(O)c(O)c2)[C@H]1O | -16% | i
CCCN(CCC)C(=O)Cc1c(-c2ccc(Cl)cc2)nc2c(Cl)cc(Cl)cn12 | -17% | -1%

# Outcome played no part in choosing rows (roughly 0.82% active in at least one column).
